Insulin prom inh: TRM-6 insulin promoter activity inhibition; AID 1273; TRM-6 cells (human fetal islet line), insulin promoter-eGFP reporter, imaging; reporter expression induced with tamoxifen; 0.9% of 130,000 active; inhibition, % at 2 µM;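 active = inhibition above the mean plus 3 SD, with well images judged a real hit on visual review, cut at about 60% in these data, passing the limit was not always enough; inconclusive = inhibition over the cutoff but images rejected on review; inactive = inhibition not above the cutoff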
GALR2 ag: activates the human galanin receptor 2. GALR2-expressing cells, agonist activation read-out. AID 803. activation, %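 (tested at 5 µM)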. 0.48% of 140,000 active;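 active = above mean plus 3 SD of all compounds, about 5% in these data, not always enough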;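 also: 0% = vehicle buffer wells and 100% = reference agonist at full effect; tested in CHO reporter cells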
Target sequence (O43603 whole entry, looked up): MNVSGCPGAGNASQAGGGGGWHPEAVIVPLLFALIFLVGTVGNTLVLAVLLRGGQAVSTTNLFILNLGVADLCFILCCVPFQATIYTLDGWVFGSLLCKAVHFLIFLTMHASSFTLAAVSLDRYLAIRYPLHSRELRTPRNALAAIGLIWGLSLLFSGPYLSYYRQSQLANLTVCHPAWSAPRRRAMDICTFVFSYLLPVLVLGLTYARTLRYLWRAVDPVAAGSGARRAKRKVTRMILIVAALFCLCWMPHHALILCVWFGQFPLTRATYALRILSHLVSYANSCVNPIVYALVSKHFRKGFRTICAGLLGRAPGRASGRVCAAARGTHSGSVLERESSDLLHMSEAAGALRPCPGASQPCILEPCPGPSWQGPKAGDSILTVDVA
RGS16-Gao: RGS16-Galphao interaction regulator (human); AID 1441; 0.38% of 220,000 active; bead-based flow cytometry RGS16-Galphao binding, fluorescence; actives lie on both sides; O15492+P09471; binding response (% of control), % at 10 µM;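 active = below 25% or above 175%, edge rows of some plates excepted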;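 also: Galphao activated by GDP with aluminum fluoride before binding; 100% = wells without compound and 0% = beads without RGS; some results beyond the cut were filed as inactive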
Target sequence (O15492 whole entry, looked up): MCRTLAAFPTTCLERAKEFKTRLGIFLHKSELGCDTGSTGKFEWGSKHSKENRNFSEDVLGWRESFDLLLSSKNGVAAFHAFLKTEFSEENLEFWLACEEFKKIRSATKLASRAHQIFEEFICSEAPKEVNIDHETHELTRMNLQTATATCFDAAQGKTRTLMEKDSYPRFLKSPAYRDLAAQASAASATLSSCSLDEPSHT
Target sequence (P09471 whole entry, looked up): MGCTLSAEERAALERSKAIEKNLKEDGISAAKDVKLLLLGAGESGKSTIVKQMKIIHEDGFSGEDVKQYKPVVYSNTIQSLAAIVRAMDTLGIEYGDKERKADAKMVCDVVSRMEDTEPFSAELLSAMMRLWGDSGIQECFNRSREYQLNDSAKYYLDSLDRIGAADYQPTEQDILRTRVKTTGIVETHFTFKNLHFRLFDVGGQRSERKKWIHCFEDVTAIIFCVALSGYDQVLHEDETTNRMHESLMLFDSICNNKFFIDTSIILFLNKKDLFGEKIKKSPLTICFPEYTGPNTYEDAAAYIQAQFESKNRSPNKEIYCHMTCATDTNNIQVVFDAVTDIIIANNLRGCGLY
HSV replic up: increases HSV replication in cells. HSV replication augmentation in cells, fold increase. maximum fold increase. 0.005% of 220,000 active. AID 1956;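 active = peak rise of 1.5-fold or more in the series; inconclusive = self-fluorescent or not available for retest; tested in PC3 cells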;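 also: first round at 10 µM; read as green reporter fluorescence; hits show the peak of a series up to 25 µM; 1 = signal of infected wells without compound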
PKD1 kinase inh: PKD1 (human) kinase inhibition; PKD1 kinase fluorescence polarization assay; AID 797; Q15139; 0.056% of 200,000 active; inhibition, %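 (about 10 µM by stock and volumes)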;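 active = inhibition of 50% or more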;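 also: controls were vehicle for no effect and a reference inhibitor for full effect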
Insulin prom inh cell count: second read-out of Insulin prom inh, no call of its own (marks repeat the call); normalized cell count, %; measured here: cell count, toxicity; reference of the scale not given here;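 cells exposed to compound for 48 h; stained nuclei by imaging scaled within each plate; lower means fewer cells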
HSV replic up primary fold: further read-out of HSV replic up, marked with its call; fold increase; compound at 10 µM; measured here: primary screen fold increase 10 uM; tested in PC3 cells;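 GFP signal in the first replicate; 1 = infected wells without compound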
* hit, by the source's call; i = inactive; u = inconclusive; x = not tested or not shown. The order is random; 1.3% or so of the library scored in one or more.

SMILES	Insulin prom inh	Insulin prom inh cell count	GALR2 ag	RGS16-Gao	HSV replic up	HSV replic up primary fold	PKD1 kinase inh
CC1=C(C(=O)OC(C)C)C(c2ccccn2)n2ncnc2N1 (configuration not stated)	x	x	0.8	103	i	0.91	-3
Cc1ccc2nc(-c3ccc4c(c3)NC(=O)CO4)cn2c1	x	x	x	102	i	0.84	x
CCOC(=O)c1ccc(NC(=S)N2CCN(S(C)(=O)=O)CC2)cc1	-38	71	0.0	128	i	0.97	4
CCOc1cccc(CNc2ccc(O)cc2)c1OCc1ccccc1Cl	x	x	0.5	x	i	1.1	-1
Cc1ccc(S(=O)(=O)Cn2nnnc2C(c2ccccc2)N2CCN(c3ncccn3)CC2)cc1 (configuration not stated)	0	138	0.2	99	i	1	1
Cc1ccc(NC(=O)CN2C(=O)S/C(=C/c3ccc(-c4cccc(C(=O)O)c4)o3)C2=O)cc1	x	x	x	102	i	1	4
CCCC(=O)NC(Nc1ccccc1OC)C(Cl)(Cl)Cl (configuration not stated)	4	88	-1.3	94	i	1.2	-1
CC1CN(C2=CC(=O)CCC2)CC(C)O1 (configuration not stated)	-8	100	x	104	i	0.9	-2
CCc1nnc(NC(=O)CSc2nnc(-c3ccco3)n2CC)s1	21	122	-0.8	107	i	1.1	-12
CCN(CC)C(=O)c1sc(NC(=O)c2c(OC)cccc2OC)c(C#N)c1C	7	121	x	100	i	0.9	-4
Nc1nc(=S)[nH]c2c1C1(CCCCC1)Cc1ccccc1-2	4	86	-0.5	109	i	1	-4
CC(C)C(=O)N1C2CCC1CC(O)(c1ccc(F)cc1)C2 (configuration not stated)	-14	94	-2.0	100	i	1.1	-9
C=C(C)CNC(=S)N/N=C1\CCCCc2ccccc21	x	x	6.1*	101	i	1.1	-2
CC1(C)Cc2nc(NCCN3CCOCC3)c(C#N)cc2CO1	29	163	0.1	103	i	0.92	-4
O=C(CSc1nnc(-c2ccco2)n1Cc1ccco1)N1CCOCC1	23	116	-0.5	100	i	1.1	-9
COc1cccc(-n2cnc3scc(-c4cccs4)c3c2=O)c1	-15	125	-3.1	81	i	0.89	-3
COc1cc(C(=O)CCN2CCC(c3ccccc3)C2)cc(OC)c1OC (configuration not stated)	-28	68	0.0	101	i	0.86	-2
CCCS(=O)(=O)N1CCC(C(=O)NC2CCCCC2C)CC1 (configuration not stated)	x	x	-2.5	99	i	1	-6
CC(C)Cc1nnc(NC(=O)CSc2nc(N)cc(=O)[nH]2)s1	x	x	-2.9	103	i	0.88	2
CNS(=O)(=O)c1ccc2nc(NC(=O)/C=C/c3ccco3)sc2c1	x	x	x	102	i	1.2	-3
COc1ccc(NC(=O)CCCn2c(=O)c3sccc3n(Cc3ccc(C)cc3)c2=O)cc1	x	x	-0.7	98	i	0.94	-5
Cc1cc(-c2n[nH]c(=S)n2CC(C)C)cs1	14	127	-0.6	101	i	0.9	0
O=C(Nc1ccc2[nH]c(=S)sc2c1)Nc1ccccc1F	x	x	x	91	u	x	x
CCc1ccnc(NS(=O)(=O)c2ccc3c(c2)OCCO3)c1	x	x	x	96	i	0.94	x
CCNc1nc(Oc2c(Cl)cccc2Cl)cc(C(F)(F)F)n1	-44	145	-1.9	108	i	0.91	-10
CCCCCC(=O)NC(=S)NNC(=O)c1ccc([N+](=O)[O-])cc1	x	x	-0.5	102	i	0.97	-1
CCOC(=O)C1=C(C)NC(=O)NC1c1ccsc1 (configuration not stated)	20	32	-1.0	130	i	0.93	-10
O=C(C(Cl)Cl)N1CCN(Cc2ccccc2)CC1	x	x	-0.2	162	x	x	-8
CCCC(C)C(=O)Nc1ccc(F)c(Cl)c1 (configuration not stated)	10	143	x	109	i	1.1	-7
CN1CCN(CCC(=O)Nc2cccc(F)c2)CC1	x	x	-1.2	97	i	0.9	-22
Cc1nn(-c2ncc(C(F)(F)F)cc2Cl)c(=O)n1-c1ccccc1F	x	x	x	86	i	0.97	-14
CC(=O)Nc1nc(C)cs1	x	x	x	103	i	0.87	-5
COc1ccc(O)c(/C=N/c2sc(C)c(C)c2C#N)c1	58	71	-1.8	101	i	0.98	3
CCn1c(SCC(=O)N2CCN(c3ccccc3F)CC2)nnc1-c1ccoc1C	x	x	-2.3	97	i	1	5
Cc1ccc2nc(N3C(=O)C(O)=C(C(=O)c4ccc(C)o4)C3c3cccc(O)c3)sc2c1 (configuration not stated)	27	95	x	103	i	1	4
CCOC(=O)c1cnc(-c2ccccc2)nc1Oc1ccc(OC)cc1	40	142	x	103	i	1	0
Cc1cccc(-c2cc3nc(C)cc(NCCCn4ccnc4)n3n2)c1	57	76	-3.1	103	i	0.79	-6
O=C(O)c1cccc(C(=O)O)n1	x	x	-2.6	111	i	0.96	-7
COc1ccccc1NC(=O)CSc1nnc(CCNC(=O)c2ccc(C)cc2)n1C	x	x	x	107	i	0.71	8
COc1ccc(N2C(=O)CSC2c2ccc3c(c2)OCO3)cc1 (configuration not stated)	-36	178	-1.6	99	i	0.87	-11
Clc1ccc(C(c2nnnn2C2CCCC2)N2CCN(c3nc4ccccc4s3)CC2)cc1 (configuration not stated)	-12	141	-0.6	x	i	0.95	-6
NS(=O)(=O)c1cccc(NC(=O)CSc2ncnc3ccccc23)c1	x	x	x	98	i	0.55	x
O=C(CCNS(=O)(=O)c1cccc2nsnc12)NC1CCCc2ccccc21 (configuration not stated)	x	x	-1.4	104	i	1	-4
O=C(Nc1cccc(NC(=O)c2sc3ccccc3c2Cl)c1)c1ccco1	-20	61	0.2	118	i	0.84	-5
CCOC(=O)C1CCN(Cc2nnnn2CCc2ccccc2)CC1	14	101	x	102	i	0.97	-6
CCOc1ccccc1NC(=S)N1CCN(c2nc(-c3cccc(OC)c3)cs2)CC1	0	90	x	110	i	0.96	-3
Cc1nn(CCC(N)=O)c2nc(-c3cccs3)cc(C(F)(F)F)c12	3	91	-1.7	91	i	0.8	-6
Cn1cc(/C=C/C(=O)N2CCCC(C(=O)c3cccc4ccccc34)C2)cn1 (configuration not stated)	x	x	x	115	i	0.95	x

In a second layout: 6 of the compounds above.
compound | Insulin prom inh | Insulin prom inh cell count | GALR2 ag | RGS16-Gao | HSV replic up | HSV replic up primary fold | PKD1 kinase inh
CCCC(=O)NC(Nc1ccccc1OC)C(Cl)(Cl)Cl (configuration not stated) | 4 | 88 | -1.3 | 94 | i | 1.2 | -1
CC1CN(C2=CC(=O)CCC2)CC(C)O1 (configuration not stated) | -8 | 100 | x | 104 | i | 0.9 | -2
CCc1nnc(NC(=O)CSc2nnc(-c3ccco3)n2CC)s1 | 21 | 122 | -0.8 | 107 | i | 1.1 | -12
CCN(CC)C(=O)c1sc(NC(=O)c2c(OC)cccc2OC)c(C#N)c1C | 7 | 121 | x | 100 | i | 0.9 | -4
Nc1nc(=S)[nH]c2c1C1(CCCCC1)Cc1ccccc1-2 | 4 | 86 | -0.5 | 109 | i | 1 | -4
CC(C)C(=O)N1C2CCC1CC(O)(c1ccc(F)cc1)C2 (configuration not stated) | -14 | 94 | -2.0 | 100 | i | 1.1 | -9

(further entries)
SMILES	Insulin prom inh	Insulin prom inh cell count	GALR2 ag	RGS16-Gao	HSV replic up	HSV replic up primary fold	PKD1 kinase inh
CCN(CC)S(=O)(=O)c1ccc2c(c1)N(CC(=O)N(CCc1ccncc1)C(C)C)C(=O)CO2	18	115	x	105	i	0.99	1
O=C(CN1CCN(c2ccccc2F)CC1)Nc1ccc2c(c1)CCC2	-43	133	-0.9	106	i	1	-4
Cc1nn(C)c(C(=O)NNC(=S)NCc2ccco2)c1Br	x	x	x	106	i	0.95	-2
O=C(CC12CC3CC(CC(C3)C1)C2)N/N=C\c1ccc[nH]1	-41	65	x	106	i	0.9	1
COc1ccc(-c2ccc(-c3noc(-c4ccccc4F)n3)c(OC)n2)cc1	-35	110	-1.6	100	i	0.92	-5
COc1ccccc1NC(=O)c1ccc(NC(=O)CN2CCCC2)cc1	25	166	x	102	i	1	4
NC(=O)C1CCN(C(=O)CNC(=O)c2ccccc2)CC1	x	x	x	103	i	0.91	-7
Cc1ccc2c(c1)C(O)(CC(=O)c1ccc3c(c1)OCO3)C(=O)N2 (configuration not stated)	6	80	-1.7	105	i	0.75	3
Cc1ccc(C(=O)NC(=S)NNS(=O)(=O)c2ccc(C)cc2)cc1	10	81	-1.2	114	i	0.91	-3
COC(=O)c1cc(-c2ccc(Br)cc2)n[nH]1	27	79	1.4	75	i	1	-2
Cc1ccc(NC(=O)Nc2nnc(Cc3ccc([N+](=O)[O-])cc3)s2)cc1	13	108	-0.8	101	i	0.82	-8
CNC(=O)/C(C#N)=C/c1ccc(-c2ccccc2[N+](=O)[O-])o1	x	x	x	106	i	0.89	-11
CC(=O)NS(=O)(=O)c1ccc(NC(=S)NC(=O)Cc2ccccc2)cc1	x	x	x	103	i	0.52	-1
O=C(c1ccc(CS(=O)(=O)c2ccc(Br)cc2)o1)N1CCCC1	x	x	-1.2	105	i	1	7
O=C(O)c1cccc(NC(=S)NCc2ccccc2)c1	x	x	x	65	i	0.98	5
CCCNC(=O)CN(c1cccc(F)c1)S(C)(=O)=O	33	91	-1.5	282	i	0.95	12
CC1(C)CC(=O)C2=C(C1)Nc1ccccc1N1C(=O)c3ccccc3C21 (configuration not stated)	0	83	-1.8	98	i	1.1	-7
CC(C)(C)c1cc(C(=O)N2CCN(c3ncccn3)CC2)ccn1	x	x	-1.2	100	i	0.82	-5
CC(C)(C)n1nnnc1C(c1ccc(F)cc1)N1CCC(C(N)=O)CC1 (configuration not stated)	x	x	x	101	i	1.1	-4
Cc1cc(CNC(=O)COc2ccc(F)cc2)c2ccccc2n1	x	x	x	96	i	0.97	2
Cc1cccc(NC(=S)NC(=O)/C=C/c2ccccc2)n1	x	x	x	105	i	0.93	-5
Cc1cccc(C)c1NC(=O)CN1C(=O)N(C)Cc2ccccc21	x	x	x	101	i	0.94	6
Cc1ccc(NC(=O)Cn2nc(C)cc2C)cc1	x	x	0.6	104	i	0.94	-11
CCOC(=O)C1=NNC(C(=O)c2ccc(C)cc2)C1c1ccc(C)cc1 (configuration not stated)	3	117	0.0	106	i	0.99	9

Some values from the list:
CC(C)(C)n1nnnc1C(c1ccc(F)cc1)N1CCC(C(N)=O)CC1 (configuration not stated) in HSV replic up primary fold shows 1.1
O=C(O)c1cccc(NC(=S)NCc2ccccc2)c1 in RGS16-Gao shows 65
CC(=O)NS(=O)(=O)c1ccc(NC(=S)NC(=O)Cc2ccccc2)cc1 in RGS16-Gao shows 103
CCCNC(=O)CN(c1cccc(F)c1)S(C)(=O)=O in RGS16-Gao shows 282

Other compounds
SMILES	Insulin prom inh	Insulin prom inh cell count	GALR2 ag	RGS16-Gao	HSV replic up	HSV replic up primary fold	PKD1 kinase inh
Cn1c(-c2ccco2)nc2cc3ccccc3cc21	x	x	-0.8	95	i	0.78	-15
CC1Cc2ccccc2N1C(=O)CNc1cccc(S(=O)(=O)N2CCCC2)c1 (configuration not stated)	5	125	x	102	i	1.1	5
COC(=O)C(CCSC)NC(=O)CNS(=O)(=O)c1ccc(F)cc1 (configuration not stated)	-57	120	-1.2	44	i	0.91	-7
O=C(Cc1ccccc1)Nc1ccc2c(c1)CCC2	x	x	x	94	i	0.9	-4
O=C(Cn1cc(C(F)(F)F)ccc1=O)N/N=C/c1ccc(O)cc1	x	x	x	117	i	1	x
O=C(Cc1nc(-c2cnccn2)no1)NNC(=O)Nc1ccccc1	x	x	x	99	i	0.9	x
COC(=O)C(=C/C=C/c1cccnc1)C(=O)OC	x	x	x	101	i	1	4
Cc1ccc(N(Cc2cc3cc(C)ccc3[nH]c2=O)C(=O)c2cccs2)cc1	x	x	-1.0	100	i	1	-6
CCOC(=O)C1=C(C)Nc2nc(SC)nn2C1c1ccc(C(=O)OC)cc1 (configuration not stated)	21	77	-2.2	128	i	0.82	-7
CCCOC(=O)c1ccc(NC(=O)C2C3C=CC(O3)C2C(=O)O)cc1 (configuration not stated)	39	117	-2.0	179	i	0.88	-10
CC(=O)c1ccc(NC(=O)C(C)N(C)CC(=O)Nc2cccc(F)c2)cc1 (configuration not stated)	x	x	x	102	i	0.99	2
Cc1cc(NC(=O)c2c(Cl)cnn2C)no1	-11	83	-1.7	196	i	1.1	-9
CC1CN(c2cc(=O)n(Cc3ccc(F)cc3)c(=O)[nH]2)CC(C)O1 (configuration not stated)	x	x	-2.4	100	i	1.1	2
O=C(O)c1ccc(N/N=C/c2ccc(C(F)(F)F)cc2)cc1	-73	78	x	99	i	0.99	-3
CCC(=O)NC(=S)Nc1ccc(OC)cc1OC	6	121	-0.3	101	i	0.99	7
S=C(NCC1CCCO1)N1CCN(c2nc(-c3ccccc3)cs2)CC1 (configuration not stated)	x	x	x	107	i	1	3
Cc1ccc(Oc2cc(NC(=O)CCCn3nc(C)c([N+](=O)[O-])c3C)cc([N+](=O)[O-])c2)cc1	-24	90	-0.3	104	i	0.75	-7
C=CCNC(=S)NNC(=O)C(CCCC)CC(O)COCC(C)C (configuration not stated)	x	x	x	86	i	1.2	x
